Pol kappa inh: qHTS for Inhibitors of Polymerase Kappa | purified Pol kappa, fluorescent DNA synthesis assay, 10 min | Potency, µM (titrated, usually from 107 µM), for inactives: at the highest dose activity, negative = inhibition, usual class: inhibitors | actives 0.53% (n = 400,000) | AID 588579, 2011; note: % is set by controls: 0 for no effect and ±100 for the full control effect
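Activity was followed as the change in fluorescence between reads at 0 and 10 min after starting the reaction with 50 nM substrate. Beforehand, 10 nM polymerase had been preincubated with compound for 15 min at room temperature.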
Apoferritin bind: qHTS Assay for Identification of Novel General Anesthetics; Potency, µM (titrated, usually from 77.5 µM), without a hit: at the highest dose activity change, negative = displacement, most hits filed as inhibitors; apoferritin/1-aminoanthracene competitive binding, fluorescence; actives 0.074% (n = 350,000); note: % is set by controls: 0 for no effect and ±100 for the full control effect; nearly all actives have a fitted effect of over 20% in size
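Steps: apoferritin (10 uM) was premixed with half-saturated 1-AMA in PBS, compounds were pin-transferred, plates stood 10 min at room temperature, fluorescence was read at 380/535 nm, and curves were fitted with a Hill equation.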
POLB inh: qHTS Assay for Inhibitors of DNA Polymerase Beta | AID 485314, 2010 | Potency, µM (top dose mostly 114 µM), for the others: at the top dose activity change, negative = inhibition, usual class: inhibitors | Pol beta primer extension/strand displacement, fluorescence kinetic | actives 1.3% (n = 340,000); note: % is set by controls: 0 for no effect and ±100 for the full control effect
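Reaction started by 50 nM substrate onto compound-treated Pol beta (10 nM, 15 min preincubation, room temperature); plates read at 0 min and 10 min. Normalized concentration-effect data fitted by four-parameter Hill equation.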
Pol eta inh: qHTS for Inhibitors of Polymerase Eta. recombinant Pol eta, fluorescent DNA replication assay. Potency, µM (series often up to 114 µM), inactives show at the top dose activity change, negative = inhibition, actives largely listed as inhibitors. actives 1.2% (n = 390,000). AID 588591, 2011; note: % is set by controls: 0 for no effect and ±100 for the full control effect
Target sequence (Q9Y253 whole entry, looked up): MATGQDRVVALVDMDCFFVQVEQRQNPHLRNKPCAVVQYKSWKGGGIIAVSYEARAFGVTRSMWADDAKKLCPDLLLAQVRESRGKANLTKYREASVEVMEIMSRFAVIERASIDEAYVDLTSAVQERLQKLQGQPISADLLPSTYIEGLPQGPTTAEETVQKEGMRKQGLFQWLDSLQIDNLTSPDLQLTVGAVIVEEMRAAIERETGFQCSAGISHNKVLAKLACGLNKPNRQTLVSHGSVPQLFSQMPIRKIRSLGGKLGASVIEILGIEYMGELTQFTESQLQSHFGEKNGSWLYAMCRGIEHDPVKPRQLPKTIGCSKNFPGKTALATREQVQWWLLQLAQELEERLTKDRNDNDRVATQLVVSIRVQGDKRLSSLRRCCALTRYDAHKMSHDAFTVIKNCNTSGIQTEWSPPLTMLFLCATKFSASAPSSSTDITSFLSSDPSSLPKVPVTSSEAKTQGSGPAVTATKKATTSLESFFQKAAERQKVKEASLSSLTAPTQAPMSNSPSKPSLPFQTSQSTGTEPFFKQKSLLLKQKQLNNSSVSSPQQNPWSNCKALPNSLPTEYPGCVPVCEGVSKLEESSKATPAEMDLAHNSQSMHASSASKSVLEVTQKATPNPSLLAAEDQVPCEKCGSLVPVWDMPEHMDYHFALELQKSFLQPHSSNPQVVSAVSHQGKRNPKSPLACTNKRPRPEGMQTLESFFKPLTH
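Pol eta (10 nM) was preincubated with compounds for 15 min at room temperature, after which fluorescent replication substrate (50 nM final) was added to start the reaction. Fluorescence was read kinetically at 0 and 10 min.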
APEX1 inh: qHTS Assay for Inhibitors of the Human Apurinic/apyrimidinic Endonuclease 1 (APE1); DNA repair nuclease/redox regulator APEX1 (Homo sapiens), P27695; recombinant APE1, TAMRA/BHQ-2 abasic DNA cleavage fluorescence; Potency, µM (titrated, usually from 65.8 µM), without a hit: at the highest dose activity change, negative = inhibition, most hits filed as inhibitors; actives 0.35% (n = 350,000); AID 2517, 2012;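 note: plate controls were vehicle for no effect and reference inhibitor for full effect; nearly all actives have a fitted effect of over 55% in size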
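Substrate: short duplex with […] THF abasic site, 5'-TAMRA and 3'-BHQ-2, 50 nM final. APE1 at 0.75 nM, preincubated 15 min RT with compound. Fluorescence increase from first to third read measured activity.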
BLM helicase inh: qHTS Assay for Inhibitors of Bloom's syndrome helicase (BLM). RecQ-like DNA helicase BLM (Homo sapiens), P54132. recombinant BLM DNA unwinding, fluorescence dequenching. Potency, µM (series often up to 56.1 µM), inactives show top-dose activity change, negative = inhibition, most hits filed as inhibitors. actives 0.2% (n = 350,000). AID 2528, 2010;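 note: plate controls were vehicle for no effect and no enzyme for full effect; nearly all actives have a fitted effect of over 35% in size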
POLI inh: qHTS for Inhibitors of Polymerase Iota; DNA polymerase iota (Homo sapiens), Q9UNA4; Pol iota fluorescent replication assay, 10 min; Potency, µM (titrated, usually from 115 µM), for the others: at the highest dose activity, negative = inhibition, most hits filed as inhibitors; actives 1% (n = 390,000); AID 588590, 2011
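Fluorescent replication assay read twice, at 0 min and 10 min after adding 50 nM (final) substrate. Enzyme (10 nM) and compounds were first incubated 15 min at room temperature; enzyme-free buffer wells were negative controls.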
G9a inh: qHTS Assay for Inhibitors of Histone Lysine Methyltransferase G9a | Histone-lysine N-methyltransferase EHMT2 (Homo sapiens), Q96KQ7 | G9a H3K9 monomethylation, AlphaScreen, 2 h | Potency, µM (series often up to 102 µM), without a hit: top-dose activity, negative = inhibition, most hits filed as inhibitors | actives 8.8% (n = 350,000) | AID 504332, 2011; note: % is set by controls: 0 for no effect and ±100 for the full control effect; nearly all actives have a fitted effect of over 75% in size
Target sequence (Q96KQ7 913-1193 limits assumed): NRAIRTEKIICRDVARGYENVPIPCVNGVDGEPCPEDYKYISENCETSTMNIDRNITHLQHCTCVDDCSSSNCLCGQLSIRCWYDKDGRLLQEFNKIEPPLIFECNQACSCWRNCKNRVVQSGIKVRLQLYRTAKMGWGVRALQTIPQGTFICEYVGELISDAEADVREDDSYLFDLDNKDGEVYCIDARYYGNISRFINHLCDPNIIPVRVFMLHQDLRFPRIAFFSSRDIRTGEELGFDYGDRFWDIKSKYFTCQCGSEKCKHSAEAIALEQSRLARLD
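Step 1: enzyme (final 20 nM) with compound, 15 min RT. Step 2: substrate peptide 500 nM and SAM 20 uM, 2 h RT. Step 3: anti-H3K9me1 antibody and AlphaScreen beads, 10 min, then plate read.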
Starred values were filed as active, the others as inactive; ? = inconclusive; · = no result given; [ ] = dose if it differs, or a comment. Calls come from the whole dose curve; as a rule, active = well fitted curve in the direction sought with a large enough effect; inconclusive = small, poorly fitted or top-dose-only effect, or another doubt; inactive = no such curve, though single readings can be large; an effect the other way counts as inactive or inconclusive. Potency is the fitted concentration of half-maximal effect.

cpd	Structure	G9a inh	Pol kappa inh	Apoferritin bind	APEX1 inh
1	O=[N+]([O-])c1cccc(Cl)c1NCCNS(=O)(=O)c1ccc(Cl)cc1	?	-8%	-24%	3%
2	CCc1cccc(C)c1Nc1c(-c2cccc(O)c2)nc2sccn12	?	-23%	-9%	·
3	Cn1c(SCc2nc3ccccc3[nH]2)nnc1-c1ccccn1	11%[59 µM]	-1%	-10%	2%
4	Cc1ccc(Nc2c(-c3ccccc3O)nc3ncccn23)cc1	-3%	12%	-7%	1%
5	C1CN(c2nc3nonc3n3nnnc23)CCO1	?	-15%	-14%	-3%
6	Cc1nc(N2CCN(C(=O)c3ccco3)CC2)c2c3c(sc2n1)CC(C)CC3 (stereo unspecified)	50µM*	-15%	-8%	-2%
7	CCOC(=O)c1c(NC(=O)CN(C)C)sc(C(=O)N(CC)CC)c1C	41%[0.501 µM]	-5%	-9%	2%
8	Cn1c(-c2ccc(F)cc2)cnc1NCc1ccccc1F	40µM*	4%	-12%	-2%

cpd	POLI inh	Pol eta inh	POLB inh	BLM helicase inh
1	134%[activator]	-28%	5%	-7%
2	?	-16%	2%	-11%
3	11%	-14%	5%	-1%
4	1%	-10%	3%	-8%
5	-4%	2%	20%	-6%
6	?	-9%	-20%	-4%
7	42%[activator]	-3%	6%	0%
8	4%	-15%	49%	-1%

Record cards, as listed above. Order of screens: G9a inh, Pol kappa inh, Apoferritin bind, APEX1 inh, POLI inh, Pol eta inh, POLB inh, BLM helicase inh
Shown for CCOC(=O)c1c(NC(=O)CN(C)C)sc(C(=O)N(CC)CC)c1C → 41%[0.501 µM], -5%, -9%, 2%, 42%[activator], -3%, 6%, 0%
Shown for Cn1c(-c2ccc(F)cc2)cnc1NCc1ccccc1F → 40µM*, 4%, -12%, -2%, 4%, -15%, 49%, -1%

The main list resumes, repeating the 3 entries before the break.
cpd	Structure	G9a inh	Pol kappa inh	Apoferritin bind	APEX1 inh
6	Cc1nc(N2CCN(C(=O)c3ccco3)CC2)c2c3c(sc2n1)CC(C)CC3 (stereo unspecified)	50µM*	-15%	-8%	-2%
7	CCOC(=O)c1c(NC(=O)CN(C)C)sc(C(=O)N(CC)CC)c1C	41%[0.501 µM]	-5%	-9%	2%
8	Cn1c(-c2ccc(F)cc2)cnc1NCc1ccccc1F	40µM*	4%	-12%	-2%
9	COc1ccc2oc(C)c(C(=O)c3ccc([N+](=O)[O-])cc3)c2c1	?	-7%	2%	-8%
10	CCOC(=O)N1CCN(CC(=O)N2c3ccccc3CCc3ccccc32)CC1	10µM*	2%	-6%	5%
11	Nc1nc(CN2CCN(c3ccccc3F)CC2)nc(Nc2ccc3c(c2)OCCO3)n1	-7%[12.7 µM]	-24%	-11%	-10%
12	CC(C(=O)N1CCCCC1)N1CCN(S(=O)(=O)c2ccc(Cl)cc2)CC1 (stereo unspecified)	?	17%	·	-1%
13	CC(C)(C)c1ccc(-c2nc(C#N)c(NCc3cccnc3)o2)cc1	40µM*	-6%	?	12%
14	Cc1cc(C)cc(NC(=O)CSc2nnc(Cc3cccn3C)n2-c2ccc(F)cc2)c1	?	5%	-21%	-9%
15	CCN(CCNC(=O)Nc1ccc(Cl)cc1)c1ccccc1	50µM*	-18%	-18%	?
16	CCC1S/C(=N/N=C/c2ccco2)N(Cc2ccccc2)C1=O (stereo unspecified)	·	-15%	-10%	-8%

cpd	POLI inh	Pol eta inh	POLB inh	BLM helicase inh
6	?	-9%	-20%	-4%
7	42%[activator]	-3%	6%	0%
8	4%	-15%	49%	-1%
9	-2%	-8%	36%	-9%
10	0%	-3%	1%	2%
11	?	-13%	6%	-6%
12	16%	-3%	·	·
13	-4%	-16%	-2%	-14%
14	16%	-24%	0%	-12%
15	2%	-22%	-1%	-11%
16	51%[activator]	-20%	10%	-16%

(listing goes on)
cpd	Structure	G9a inh	Pol kappa inh	Apoferritin bind	APEX1 inh
17	CC1CN(CCCOc2ccccc2[N+](=O)[O-])CC(C)O1 (stereo unspecified)	27%[0.501 µM]	-19%	-15%	6%
18	CC(C)C(=O)Nc1cccc(C(=O)NCc2ccc(S(N)(=O)=O)cc2)c1	17%[59 µM]	-8%	0%	?
19	CCOC(=O)N1CCN(Cc2nc(N)nc(Nc3ccc(OC)cc3)n2)CC1	-6%[12.7 µM]	5%	-7%	4%
20	CSc1ccc(CN(C)CC(=O)Nc2c(F)cccc2F)cc1	6.3µM*	-2%	-12%	-2%
21	CC(C)(O)c1[nH]c2cc(F)ccc2c1C(C)(C)O	?	-6%	-18%	-13%
22	NC(N)=NC(N)=Nc1ccc2ccccc2c1	79µM*	0%	-7%	?
23	CCOC(=O)N1CCN(C(=O)c2cc(-c3ccc(OCC)cc3)nc3ccccc23)CC1	1%[59 µM]	-20%	-15%	4%
24	Cc1ccc(N2CCN(C(=O)c3cccc([N+](=O)[O-])c3)CC2)cc1Cl	?	-5%	-21%	0%

cpd	POLI inh	Pol eta inh	POLB inh	BLM helicase inh
17	-6%[58.9 µM]	-8%	15%	-1%
18	2%	-12%	-16%	0%
19	34%[activator]	-6%	0%	-3%
20	-10%	2%	18%	-2%
21	38%[activator]	-2%	28%	-5%
22	0%	-14%	?	63%[activator]
23	12%	-19%	1%	-11%
24	46%[activator]	-22%	-11%	-10%

3 entries drawn at random from those above:
cpd	Structure	G9a inh	Pol kappa inh	Apoferritin bind	APEX1 inh
24	Cc1ccc(N2CCN(C(=O)c3cccc([N+](=O)[O-])c3)CC2)cc1Cl	?	-5%	-21%	0%
18	CC(C)C(=O)Nc1cccc(C(=O)NCc2ccc(S(N)(=O)=O)cc2)c1	17%[59 µM]	-8%	0%	?
19	CCOC(=O)N1CCN(Cc2nc(N)nc(Nc3ccc(OC)cc3)n2)CC1	-6%[12.7 µM]	5%	-7%	4%

cpd	POLI inh	Pol eta inh	POLB inh	BLM helicase inh
24	46%[activator]	-22%	-11%	-10%
18	2%	-12%	-16%	0%
19	34%[activator]	-6%	0%	-3%

Next section.
cpd	Structure	G9a inh	Pol kappa inh	Apoferritin bind	APEX1 inh
25	COc1ccccc1NC(=O)c1sc2ncn(CC(=O)N3CCC(C)CC3)c(=O)c2c1C	18%	2%	-11%	-6%
26	CSc1ccccc1NC(=O)CN(C)CC(=O)Nc1ccc(Cl)cc1[N+](=O)[O-]	25%[59 µM]	-2%	?	9%
27	CC(C)N1CCC(N2CCN(Cc3ccc(-c4ccccc4Cl)o3)CC2CCO)CC1 (stereo unspecified)	16µM*	-5%	-14%	5%
28	CCc1cc(C(=O)c2ccc(OC)cc2)c(NC(=O)CN2CCCCC2)s1	12%	7%	-8%	-1%
29	O=[N+]([O-])c1ccc(-c2ccc(/C=N/c3c(-c4ccco4)nc4ccccn34)o2)cc1	-8%[59 µM]	-8%	-20%	-4%
30	O=C(CSc1nnc(-c2ccccn2)o1)Nc1ccc(F)cc1	53%[activator]	9%	-7%	68%[activator]
31	Fc1ccc(CNCc2ccco2)cc1	?	-5%	2%	-7%
32	CCOc1ccc(NC(=O)CSc2nnc(-c3ccccn3)n2C)cc1	16%[59 µM]	-2%	-3%	11%

cpd	POLI inh	Pol eta inh	POLB inh	BLM helicase inh
25	18%	7%	-1%	0%
26	2%	-13%	12%	-14%
27	23%	11%	-8%	-4%
28	34%	-10%	-30%	-5%
29	-18%	-16%	4%	-9%
30	-6%	-9%	22%	-4%
31	40%[activator]	-14%	9%	2%
32	16%	-10%	18%	-3%

Carrying on:
cpd	Structure	G9a inh	Pol kappa inh	Apoferritin bind	APEX1 inh
33	CCN(CC)C(=O)C1CCCN(Cc2ccccc2F)C1 (stereo unspecified)	?	10%	-6%	-1%
34	N#Cc1nc(-c2ccccc2F)oc1N1CCCCC1	79µM*	-19%	-9%	16%
35	Cc1cc(C)c2sc(N(CCN(C)C)C(=O)c3c(F)cccc3F)nc2c1	45µM*	-3%	?	8%
36	Cc1noc(C)c1CSc1nc2ccccc2c(=O)n1-c1ccccc1	7%[59 µM]	-4%	?	-1%
37	CC1CCN(c2nc(-c3ccc(C(C)(C)C)cc3)nc3ccccc23)CC1	-3%[59 µM]	-22%	-11%	·
38	CCc1cc2c3c(c1)C1(C(=O)N3C(C)(C)C=C2C)C(C#N)=C(N)Oc2[nH]c(=O)[nH]c(=O)c21 (stereo unspecified)	50µM*	1%	-1%	2%
39	O=C(COC(=O)c1ccc(Oc2ccccc2)cc1)Nc1nnc(-c2ccccc2)o1	18%[12.7 µM]	-20%	1%	8%
40	CC(C)Cn1c(NCCN(C)C)nc2c1c(=O)[nH]c(=O)n2C	-32%	-10%[60.1 µM]	-7%	9%

cpd	POLI inh	Pol eta inh	POLB inh	BLM helicase inh
33	26%	-7%	-1%	-1%
34	8%	-2%	5%	-4%
35	14%	-8%	-20%	4%
36	0%	-22%	-2%	-6%
37	6%	-13%	11%	-9%
38	70%[activator]	-8%	5%	5%
39	9%	-20%	5%	-6%
40	12%	-2%	8%	-1%

More structures:
cpd	Structure	G9a inh	Pol kappa inh	Apoferritin bind	APEX1 inh
41	CCC(c1nnc(SCC(=O)Nc2nnc(-c3ccccc3)o2)o1)N(C)C (stereo unspecified)	-47%[59 µM]	-21%	-14%	10%
42	c1cncc(CNc2cccc(-c3nc4ccccc4[nH]3)c2)c1	?	-18%	-8%	1%
43	CN(C)CCCN(C(=O)c1ccc(C(=O)c2ccccc2)cc1)c1nc2c(F)cccc2s1	·	-3%	-21%	-8%
44	O=C(c1cccs1)N1CCN(Cc2cccnc2)CC1	11µM*	-12%	-4%	2%
45	COc1cc(CNCc2ccccc2C(F)(F)F)cc(OC)c1	6.3µM*	-12%	-8%	-4%
46	O=C1CN(C(=O)CNCc2cccc(Cl)c2)c2ccccc2N1	11µM*	2%	6%	1%
47	CCCCn1c(SCC(=O)NCc2ccco2)nnc1-c1ccco1	?	-13%	-6%	-3%
48	COc1ccc(CN2CCN(C(=O)c3cccc(OC)c3OC)CC2)cc1OC	7.9µM*	-6%	-3%	-1%
49	O=C(Nc1cccc(C(F)(F)F)c1)NC1CCN(S(=O)(=O)c2ccc(F)cc2)CC1	27%[59 µM]	-5%	-16%	-2%

cpd	POLI inh	Pol eta inh	POLB inh	BLM helicase inh
41	-12%	7%	18%	-1%
42	54%[activator]	-13%	-6%	-12%
43	12%	5%	-8%	4%
44	0%	22µM*	26%	-2%
45	?	-5%	-17%	-4%
46	-12%	-11%	2%	-1%
47	2%	-7%	48%	-13%
48	100%[activator]	-3%	3%	-3%
49	4%	-19%	38%	-3%

Screens (PubChem BioAssay)

A portion of the library (hit frequency here may not be typical).
